# Screening results from PubChem BioAssay.
# PREPL inhibitor: PREPL enzyme inhibitors, primary screen, biochemical, fluorescence polarization; recombinant PREPL, fluorescence polarization activity-based probe; inhibition, % at 5.96 µM; AID 2751, 2010; Prolyl endopeptidase-like (Homo sapiens), Q4J6C6; 320,000 compounds, 0.68% hits; in the data active = inhibition above about 43%;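 also: 0% = enzyme with DMSO and 100% = wells lacking enzyme; many of its hits are not listed in these tables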
# PP1 inh: PP1-alpha phosphatase inhibitors, primary screen, counter-screen for PP5 inhibitor project, biochemical, fluorescence, OMFP substrate, single point; Serine/threonine-protein phosphatase PP1-alpha catalytic subunit (Homo sapiens), P62136; purified PP1alpha; inhibition, % at 6.7 µM; 320,000 compounds, 0.9% hits;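 active = inhibition above the mean inhibition of all tested compounds plus 3 SD, computed separately for each screening campaign, cut at about 15% in these data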
# Target sequence (P62136 whole entry, looked up): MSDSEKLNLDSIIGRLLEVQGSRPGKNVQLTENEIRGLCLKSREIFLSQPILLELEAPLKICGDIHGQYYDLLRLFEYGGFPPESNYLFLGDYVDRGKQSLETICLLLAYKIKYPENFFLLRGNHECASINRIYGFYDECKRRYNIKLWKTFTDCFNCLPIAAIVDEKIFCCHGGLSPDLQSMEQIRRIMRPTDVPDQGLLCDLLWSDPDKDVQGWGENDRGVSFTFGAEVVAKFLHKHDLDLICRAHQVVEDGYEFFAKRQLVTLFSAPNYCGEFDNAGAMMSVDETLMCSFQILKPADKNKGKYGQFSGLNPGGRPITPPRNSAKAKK
# LYPLA2 inh: LYPLA2 inhibitors, primary screen, counter-screen for PME1 inhibitor project, biochemical, fluorescence polarization, FP-Rh probe ABPP | Acyl-protein thioesterase 2 (Homo sapiens), O95372 | recombinant LYPLA2 | inhibition, % at 5.9 µM | 320,000 compounds, 0.38% hits | AID 2177, 2009;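 active = inhibition above the screen-wide mean plus 3 SD, limit set per campaign, cut at about 26% in these data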;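 also: 0% = LYPLA2 with DMSO and 100% = wells lacking LYPLA2 enzyme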
# GASC-1 inh: inhibitors of GASC-1 histone demethylase, primary screen, biochemical, fluorescence, DELFIA europium. GST-JMJD2C(1-420) H3K9me3 demethylation. inhibition, % at 2.35 µM. 330,000 compounds, 0.069% hits. AID 2099, 2009;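 active = more than half of a compound's replicate wells show inhibition beyond 50%, single wells judged on their own value; inconclusive = some, but no more than half, of replicates pass 50% inhibition; inactive = no replicate passes 50% inhibition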;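 also: signal counts dimethyl H3K9 product captured on neutravidin plate; 0% = median of DMSO wells and 100% = 0.3 times that DMSO median; strong numbers were not always called active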
# PP5 primary: PP5 phosphatase inhibitors, primary screen, biochemical, fluorescence. purified PP5c, OMFP substrate fluorescence. inhibition, % at 6.7 µM. 320,000 compounds, 0.18% hits;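 active = inhibition above the campaign's mean inhibition across all tested compounds plus 3 SD, cut at about 9.5% in these data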;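 also: 0% = DMSO only and 100% = 100 µM cantharidin control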
# Active calls of the source: *; ? = inconclusive; & = joins results of further samples. Not all compounds are listed. The share of hits here may be higher or lower than overall.
SMILES,PREPL inhibitor,PP1 inh,LYPLA2 inh,GASC-1 inh,PP5 primary
COCc1c(C(C)C)nc(C(C)C)c(/C=C/[C@@H](O)C[C@@H](O)CC(=O)O)c1-c1ccc(F)cc1,17,3,-1,2,-1.0
CCOC(=O)N1CCC(=C2c3ccc(Cl)cc3CCc3cccnc32)CC1,-3,-5,-2,8&8,1.0
CCCC(CCC)C(=O)O,14&13,-3&-3,-4&1,-3,-3.0&4.7
C#C[C@]1(O)CC[C@H]2[C@@H]3CCC4=CC(=O)CC[C@@H]4[C@H]3CC[C@@]21C,-3,-4,2,6,-0.9
COc1cccc(N2CCN(CC(=O)Nc3ccc(-n4cnnn4)cc3)CC2)c1,7,-1,-7,-6,-1.5
Cc1nn(-c2ccccc2)c(Cl)c1/C=N/NC(=O)c1ccncc1,16,1,-5,1,0.2
CC(C)(C)c1ccc(-n2ncc3c2CCCC3NC(=O)CCN2CCCC2=O)cc1 (configuration not stated),17,0,4,10,0.1
CCOC(=O)c1c(C)oc2ccc(O)cc12,6,1,-1,2,0.1
C#C[C@]1(O)CC[C@H]2[C@@H]3CCC4=Cc5oncc5C[C@]4(C)[C@H]3CC[C@@]21C,-7,0,-6,?,1.0
COc1ccccc1C(=O)NNC(=S)NC(=O)c1ccco1,2,0,2,-13,4.1

# Random excerpt: five entries already listed
SMILES,PREPL inhibitor,PP1 inh,LYPLA2 inh,GASC-1 inh,PP5 primary
CCOC(=O)c1c(C)oc2ccc(O)cc12,6,1,-1,2,0.1
CCCC(CCC)C(=O)O,14&13,-3&-3,-4&1,-3,-3.0&4.7
COc1cccc(N2CCN(CC(=O)Nc3ccc(-n4cnnn4)cc3)CC2)c1,7,-1,-7,-6,-1.5
COc1ccccc1C(=O)NNC(=S)NC(=O)c1ccco1,2,0,2,-13,4.1
CCOC(=O)N1CCC(=C2c3ccc(Cl)cc3CCc3cccnc32)CC1,-3,-5,-2,8&8,1.0

# Full records, quoted from the list. Order of values: PREPL inhibitor, PP1 inh, LYPLA2 inh, GASC-1 inh, PP5 primary
# C#C[C@]1(O)CC[C@H]2[C@@H]3CCC4=CC(=O)CC[C@@H]4[C@H]3CC[C@@]21C is listed as -3, -4, 2, 6, -0.9
# CCOC(=O)c1c(C)oc2ccc(O)cc12 is listed as 6, 1, -1, 2, 0.1
# COc1ccccc1C(=O)NNC(=S)NC(=O)c1ccco1 is listed as 2, 0, 2, -13, 4.1
